Source: PubChem (several laboratories)
eIF4H FP inh – inhibitors of RNA binding by human eIF4H; Q15056; eIF4H fluorescence polarization binding assay; inhibition, % at 35 µM; 0.94% of 290,000 active;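 active = 50% or more with normal probe brightness, or confirmed in later tests; inconclusive = above 50% with abnormal brightness, or retests that disagree; inactive = below 50% or failed in later tests; about a fifth of its hits are not listed in these tables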;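 note: calls also rest on retests at 20 µM and on dose response follow-up; 0% = protein and probe with vehicle and 100% = probe without protein; strong numbers were not always called active; many hits fall short of the cut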
UUG fidelity – yeast start codon fidelity modulation; 0.13% of 350,000 active; activity score, % at 18.7 µM; S. cerevisiae UUG-firefly luciferase reporter, luminescence/redox ratio; AID 602363;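 active = replicate mean at a twofold rise or more, about +100% in these data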;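 note: firefly luciferase made from a UUG start codon reports start codon fidelity; reporter light over untreated wells divided by growth signal over untreated wells; some hits fall short of that in this replicate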
MT1-MMP act inh – blocks activation of human MT1-MMP. P50281. HT1080 RFP-PRO-GFP cells, GFP/RFP ratio fluorescence, overnight; percent of plate control window, DMSO zero. GFP/RFP ratio change, % at 20 µM. 0.061% of 360,000 active;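 active = GFP/RFP ratio change of at least 30% with cell ATP level not reduced by more than half and red fluorescence within 50% of control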; note: strong numbers were not always called active
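Test system: HT1080 cells expressing an RFP-PRO-GFP fluorescent reporter construct / Compound dosing: single-point 20 µM compound, 1% DMSO / Schedule: cells overnight before dosing, compound overnight, 37 °C, 5% CO2 / Evaluation: GFP/RFP fluorescence ratio / Control set: DMSO and RFP-L50D-GFP cell wells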
Rce1 inhib – blocks yeast Ras-converting enzyme; yeast membranes, quenched prenylated peptide cleavage fluorescence; calls only; 0.27% of 290,000 active;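 active = fall in fluorescence gain of 50% or more versus controls, with final raw signal at or below 3038400; inconclusive = same 50% fall but final raw signal above 3038400; inactive = fall in fluorescence gain under 50%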;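 note: plate controls were neutral control wells for no effect and wells lacking membranes for full effect; tested at 10 µM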
HIV Env fusion – inhibitors of HIV Env-mediated cell fusion | HeLa-JRFL Env/CEM21 cell fusion, luciferase | 1.1% of 360,000 active | inhibition, % at 12.3 µM | AID 651610;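 active = mean replicate inhibition score of at least 50 and every replicate individually at or above 50; inconclusive = only one of the two criteria met; inactive = mean below 50 and not all replicates reaching 50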;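 note: 0% = plate neutral controls and 100% = maraviroc near 300 nM; one replicate is shown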
CSC inhib – cancer stem cell inhibition; 1.1% of 300,000 active; cancer stem cell-like cells viability, luminescence; inhibition, % at 7.5 µM;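 active = mean at 75% or more and at least half the replicates too; inconclusive = mean and replicates disagree; tested in HMLE shEcad cells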;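 note: 0% = median of negative and 100% = median of positive control wells; the first replicate is given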
PABP polyA inh – PABP-poly(A) binding inhibition | inhibition, % at 35 µM | AID 2014 | 1% of 290,000 active | P11940 | PABP-poly(A) RNA binding, fluorescence polarization;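 active = 50% or more with normal probe brightness, or confirmed in later tests; inconclusive = above 50% with abnormal brightness, or retests that disagree; inactive = below 50% or failed in later tests; about a fifth of its hits are not listed in these tables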;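 note: calls also rest on retests at 20 µM and on dose response follow-up; controls were probe without protein and protein plus probe with vehicle; some compounds called inactive have numbers as strong as hits; many hits fall short of the cut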
Target sequence (P11940 whole entry, looked up): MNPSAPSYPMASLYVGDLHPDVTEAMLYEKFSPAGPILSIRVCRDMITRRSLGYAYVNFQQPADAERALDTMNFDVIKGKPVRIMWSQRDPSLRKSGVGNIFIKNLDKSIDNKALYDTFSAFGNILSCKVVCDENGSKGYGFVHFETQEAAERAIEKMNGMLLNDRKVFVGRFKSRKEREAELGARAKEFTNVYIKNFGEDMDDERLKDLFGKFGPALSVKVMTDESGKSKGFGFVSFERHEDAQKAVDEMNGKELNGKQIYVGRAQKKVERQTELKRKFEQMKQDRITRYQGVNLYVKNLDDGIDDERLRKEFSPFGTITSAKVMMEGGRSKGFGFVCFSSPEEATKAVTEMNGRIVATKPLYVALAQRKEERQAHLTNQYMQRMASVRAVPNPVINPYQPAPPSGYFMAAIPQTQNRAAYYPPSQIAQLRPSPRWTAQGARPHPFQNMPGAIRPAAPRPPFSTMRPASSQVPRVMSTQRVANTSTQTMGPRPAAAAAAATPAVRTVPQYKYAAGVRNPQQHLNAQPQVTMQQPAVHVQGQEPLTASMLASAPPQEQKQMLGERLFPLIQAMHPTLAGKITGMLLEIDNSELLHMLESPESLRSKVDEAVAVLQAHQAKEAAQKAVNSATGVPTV
eIF4H FP inh retest – also measured in eIF4H FP inh; calls as there; inhibition, %; compound at 20 µM; confirmation average;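 mean of two retest wells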
PABP polyA inh retest – further read-out of PABP polyA inh, marked with its call; inhibition, %; compound at 20 µM; confirmation repeats;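 mean of two retest wells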
MT1-MMP act inh RFP – further read-out of MT1-MMP act inh, marked with its call; RFP signal change, %; measured here: RFP expression control read;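 0 = vehicle wells; hits needed this value within 50% of zero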
Numbers without * were called inactive; i = inactive; ? = inconclusive; . = no result given.

SMILES	eIF4H FP inh	UUG fidelity	MT1-MMP act inh	MT1-MMP act inh RFP	Rce1 inhib	HIV Env fusion	CSC inhib	PABP polyA inh	others
CCCC(=O)Nc1nn(C)c2nc3ccc(C)cc3cc12	-4	-8	3	-3	i	-1	8	-5
Cn1ncc(C#N)c1NC(=O)C1CC(c2c(F)cccc2Cl)=NO1 (stereo unspecified)	-3	-8	6	3	i	.	-16	-4
CCOC(=O)N1CCN(c2cc(C)c([N+](=O)[O-])cc2F)CC1	4	-10	2	0	i	-13	8	-7
CCC(CC)C(=O)Nc1nnc(S(=O)(=O)N2c3ccccc3CC2C)s1 (stereo unspecified)	-13	-16	-2	-13	i	-6	5	0
Cc1ccc(CNC(=O)Cc2cccs2)cc1	-8	-16	0	2	i	.	-4	1
CCOC(=O)N1CCN(C(=O)/C=C/c2ccc(OC)c(OC)c2)CC1	1	-8	10	6	i	-4	-6	-4
CCn1nnc(NC(=O)C(c2ccccc2)c2ccccc2)n1	6	-2	-3	-3	i	15	9	15
CCOC(=O)CSc1cc(=O)n(CC)c2ccccc12	2	-14	-2	-2	i	-4	-12	6
COc1ccc(/C=C/c2cccc[n+]2C)c(O)c1	-18	1	-3	-3	i	8	-5	2
O=C(Nc1ccc(N2CCN(c3ccc(C(F)(F)F)cn3)CC2)nc1)c1cccs1	3	.	7	2	i	6	-2	-16
Cc1ccc(C(=O)NC(CCc2ccccc2)C(=O)O)cc1 (stereo unspecified)	.	-35	4	8	.	11	.	.
Cc1ccc(-c2[nH]nc3c2C(c2ccoc2)C(C#N)=C(N)O3)cc1C (stereo unspecified)	3	-15	0	4	i	.	12	6
Cc1cccc(NC(=O)c2cccnc2)c1C	-13	-9	1	3	i	9	1	-6
Cc1cccc(NC(=S)N(Cc2cccc(Br)c2)CC2CCC(C(=O)O)CC2)c1 (stereo unspecified)	8	.	-1	0	i	5	-5	-8
c1ccc(-c2nc(N3CCOCC3)cc(N3CCOCC3)n2)cc1	0	-18	-4	1	i	4	.	6
OCC[C@H]1C[C@H](O)[C@@H](O)[C@]2(OCc3ccccc32)O1	.	-5	1	3	.	-1	-8	.
Cc1cccc(CS(=O)(=O)Cc2ccc(C(=O)NC3CCCC3)o2)c1	.	5	1	-2	i	-3	-10	.
Cc1cccc(C(=O)OCC(=O)NCc2cccs2)c1	-3	2	-5	1	i	7	0	7
Cc1ccc(C(=O)NNC(=O)c2ccc(NS(=O)(=O)c3cccs3)cc2)o1	.	-15	-4	1	.	2	-5	.
O=C(NCc1cccc(C(F)(F)F)c1)C1CC(c2ccccc2C(F)(F)F)=NO1 (stereo unspecified)	-6	-6	-6	-10	i	-106	63	6

Fetched one by one from the entries so far (4):
SMILES	eIF4H FP inh	UUG fidelity	MT1-MMP act inh	MT1-MMP act inh RFP	Rce1 inhib	HIV Env fusion	CSC inhib	PABP polyA inh	others
CCOC(=O)N1CCN(c2cc(C)c([N+](=O)[O-])cc2F)CC1	4	-10	2	0	i	-13	8	-7
CCOC(=O)CSc1cc(=O)n(CC)c2ccccc12	2	-14	-2	-2	i	-4	-12	6
Cc1ccc(-c2[nH]nc3c2C(c2ccoc2)C(C#N)=C(N)O3)cc1C (stereo unspecified)	3	-15	0	4	i	.	12	6
Cn1ncc(C#N)c1NC(=O)C1CC(c2c(F)cccc2Cl)=NO1 (stereo unspecified)	-3	-8	6	3	i	.	-16	-4

Next compounds follow.
SMILES	eIF4H FP inh	UUG fidelity	MT1-MMP act inh	MT1-MMP act inh RFP	Rce1 inhib	HIV Env fusion	CSC inhib	PABP polyA inh	others
CCC(CC)C1C(C#N)=C(N)Oc2cc(C)oc(=O)c21 (stereo unspecified)	-7	-8	6	3	i	.	0	7
CCOC(=O)C1=CCC(c2ccccc2C)N(S(=O)(=O)c2ccc(C)cc2)C1 (stereo unspecified)	.	1	4	-5	.	-22	.	.
Cc1cccc(CSc2nn3c(=O)c(C)nnc3s2)c1	3	-22	2	4	i	-28	4	-5
CC1CC2(CCCCC2)Nc2ccc3ccccc3c21 (stereo unspecified)	0	-7	-35	1	i	.	24	-1
COc1cccc(CC2(CO)CCCN(CC3=Cc4cc(Cl)ccc4OC3)C2)c1 (stereo unspecified)	18	7	-1	3	i	14	-2	-4
CC1(C(=O)NC(=S)NNC(=O)c2ccncc2)CCCCC1	4	-54	-3	-3	i	.	1	-8
Cc1ccc(Sc2nnc(-c3ccccc3)cc2C#N)cc1	-3	.	0	0	i	.	-5	-7
CC(C)CNS(=O)(=O)c1ccc(CCC(=O)NCCC2=CCCCC2)cc1	-6	-1	4	-5	i	45	7	3
O=C(NC(=S)NCCC1=CCCCC1)c1ccco1	-1	.	-4	-2	.	-2	-2	-9
COC(=O)c1ccc(-n2cncn2)c([N+](=O)[O-])c1	-5	.	-6	-1	i	-28	2	8
Cc1nnsc1S(=O)c1ccccc1Cl (stereo unspecified)	0	-21	3	-2	i	-9	-3	-1
COc1ccc(OC)c2c(C)cc(N3CCN(C(=O)c4ccc(Cl)cc4)CC3)nc12	-8	-16	0	-6	i	-24	.	0
O=C(Cn1c(COc2ccccc2)nc2ccccc21)Nc1cc(Cl)cc(Cl)c1	2	-5	0	-2	i	28	11	-7
COc1ccc(C(=O)NC(=S)N2CCNC(=O)C2)cc1Br	-4	-18	-1	6	i	-11	-12	-6
O=c1cc(N2CCCCC2)c(-c2ccccc2)nn1Cc1cccc(Cl)c1	0	-4	-2	-8	i	.	88*	-1
CCCNS(=O)(=O)c1ccc(OCC(=O)Nc2ccc3c(c2)OCO3)cc1	-13	.	3	3	i	13	2	6
O=C1NC(=O)C(Cc2ccccc2)(c2cccnc2)N1 (stereo unspecified)	-4	-17	3	0	i	-6	-1	9
O=S1(=O)CC/C(=N\O)c2ccccc21	3	-4	-1	-2	i	-78	-6	1
Cc1ncc(CN2CCCC(C(=O)Nc3ccc(-c4cscn4)cc3)C2)cn1 (stereo unspecified)	1	-13	-1	3	i	5	-4	1
CSc1nncc(-c2ccc(F)c(F)c2)n1	-2	-2	-1	2	i	-466	-11	0
CC1CCCCC1NC(=O)c1ccc(NS(=O)(=O)c2ccc3[nH]c(=O)[nH]c3c2)cc1 (stereo unspecified)	.	-2	4	3	i	-3	-1	.
CC(NC(=O)C1CCC(CNS(=O)(=O)c2ccccc2)CC1)c1ccc2c(c1)OCCO2 (stereo unspecified)	-2	.	.	.	i	.	-5	-2
CN(C)c1ccc(CNC(=O)C2(C)Cc3c(-c4ccc5c(c4)OCO5)ccnc3O2)cc1 (stereo unspecified)	.	-6	3	-7	.	-21	.	.
CNc1nc2c(Cl)cc(Cl)cc2s1	-4	.	-1	0	i	1	-3	2
O=C(Cc1cccs1)NCc1ccccc1F	-10	.	-5	-2	i	.	33	8
Cc1ccc(-c2nnn(CC(=O)N(Cc3ccco3)C(C(=O)NC(C)(C)C)c3ccc(C)o3)n2)o1 (stereo unspecified)	6	.	1	-3	i	45	-1	-4
CCOC(=O)CC(=O)CSc1nc(-c2ccc3c(c2)OCO3)cc(C(F)(F)F)c1C#N	?	-6	-236	6	i	.	-5	82*
COC(CNC(=O)C(=O)NCC1OCCN1C(=O)c1ccc(Cl)cc1)OC (stereo unspecified)	10	-20	-1	7	i	-3	.	6
CCOC(=O)c1nn(-c2ccc(C)cc2)c(C)c1C(C)=O	-1	-14	0	1	i	-21	-1	-8
CC(=O)c1ccc2c(c1)CC(C)C(=O)N2C (stereo unspecified)	0	-19	0	5	i	-61	6	-1
CCn1c(O)c2ccc(C(=O)N=NC(=O)c3cccnc3)cc2c1O	-9	.	3	4	i	.	.	-11
O=C(COCc1cc(-c2ccc3c(c2)OCO3)on1)N1CCCCC1	-3	-3	-8	-1	i	-30	3	10
CCOc1ccc(NC(=O)c2ccc3c(c2)CCN3S(C)(=O)=O)cc1	-1	-7	3	-5	.	-1	-2	-7
CCc1nnc(NC(=O)CN2C(=O)c3ccccc3C2=O)s1	3	-25	4	4	i	.	-3	1
O=C(/C=C/c1cccc([N+](=O)[O-])c1)N1CCN(c2ccc(F)cc2)CC1	1	-2	6	-2	i	16	-6	17
Cc1cc(C)n(-c2cc(N3CCN(C(=O)c4cccc(Br)c4)CC3)ccc2[N+](=O)[O-])n1	7	-12	13	-11	i	.	-10	-3
COc1ccc(C(=S)N2CCN(c3ccccc3C)CC2)cc1	-6	-18	4	4	i	8	4	1
O=C(NN1CCOCC1)c1c(-c2ccccc2)sc2ccccc12	.	-19	2	2	.	-26	-2	.
COc1cccc(/C=C/C(=O)OCC(=O)NCc2ccc(Cl)cc2)c1	-17	1	4	7	i	-7	-8	5
Cc1ccc(C2=NOC(C)(c3nnc(-c4ccc(Cl)cc4)o3)C2)cc1 (stereo unspecified)	-17	-2	-3	0	i	28	-9	-2
CN(C)CCn1c(C(=O)O)cc2ccccc21	-4	-11	1	-2	i	.	-13	20
CCOC(=O)c1cnc(-n2nc(C)cc2C)nc1NCCO	-10	-33	5	6	i	-20	.	-9
O=C(CCc1ccccc1)Nc1nc2c(F)cc(F)cc2s1	-5	0	-7	-9	i	-38	4	-4
CCn1c2ccccc2c2cc(NC(=O)COC(=O)c3cc(S(=O)(=O)N4CCCCC4)ccc3Cl)ccc21	0	.	3	-7	i	-29	-3	2
CCOC(=O)C1CCN(CC(O)COCc2ccc3c(c2)OCO3)CC1 (stereo unspecified)	4	.	-1	5	i	5	.	-7
CC1=C(C(=O)Nc2cccc([N+](=O)[O-])c2)C2(CCC(C)CC2)OC1=O (stereo unspecified)	5	.	6	2	i	-8	-10	5
CCc1ccc(C(c2c(C)nn(-c3ccccc3)c2N)c2c(C)nn(-c3ccccc3)c2N)cc1	11	-15	-14	-14	i	-9	1	-13
O=C(O)CC(NC(=O)C12CC3CC(CC(C3)C1)C2)c1ccc(OC2CCCC2)cc1 (stereo unspecified)	0	-3	0	5	i	-7	3	-10
COc1ccccc1C1=NOC(C)(c2sc(-c3ccccc3)nc2C)C1 (stereo unspecified)	.	-19	1	1	i	15	12	.
Cn1c(SCC(=O)NCCc2ccccc2)nnc1C1CCCCC1	-1	-3	-2	-1	i	-3	-3	-2
Remaining list, next part:
SMILES	eIF4H FP inh	UUG fidelity	MT1-MMP act inh	MT1-MMP act inh RFP	Rce1 inhib	HIV Env fusion	CSC inhib	PABP polyA inh	others
CCOC(=O)c1c(C)[nH]c(C)c1S(=O)(=O)N1CCN(c2ccc(F)cc2)CC1	-2	2	5	-1	i	-12	16	14
O=C(Nc1nncs1)c1ccc(S(=O)(=O)c2ccccc2)cc1	9	-16	1	3	i	-75	4	12
Fc1ccc(-c2nc3ccc(Cl)cn3c2Cc2ccsc2)cc1	.	0	-2	1	.	-64	.	.
COc1cc2sc3ccc(C#CC4(O)CCCCC4)cc3c(=O)c2cc1OC	.	7	9	-11	i	i	10	.
CN(C(=O)COc1ccc(Cl)cc1Cl)C1(C)CCS(=O)(=O)C1 (stereo unspecified)	.	-23	11	0	i	-75	-1	.
O=c1oc2cc(Br)ccc2n1Cc1ccccc1	4	-15	-1	-2	i	-4	7	5
O=C(CCN1C(=O)/C(=C/c2cccs2)SC1=S)Nc1ccc(O)cc1	54	-19	-6	4	i	13	-4	50	eIF4H FP inh retest=6;PABP polyA inh retest=39
Cn1c(SCc2cccc(C#N)c2)nc2ccccc2c1=O	3	-20	-1	-17	i	23	-15	-1
O=C(Cc1ccc([N+](=O)[O-])cc1)NCc1cccnc1	-6	-7	0	4	i	3	-9	3
O=C(N/N=C/c1c[nH]c2ccccc12)c1ccc(Cl)cc1	-2	-21	2	1	i	-25	6	-3

Hits appear at their usual frequency (roughly 3% active in at least one column).
